MLL AF4-AF9 inh = blocks AF4 peptide binding to human AF9 | P42568 | AlphaScreen, biotin-AF4 peptide binding to FLAG-AF9 | inhibition, % at 10 µM | 0.47% of 350,000 active | AID 651704;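 active = every replicate reaching a set inhibition limit, whatever the replicate mean, cut at about 25% in these data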;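 also: 0% = plate neutral control median and 100% = total signal loss; the record names both 10 and 1 µM as test concentration; the first replicate is given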
Target sequence (P42568 whole entry, looked up): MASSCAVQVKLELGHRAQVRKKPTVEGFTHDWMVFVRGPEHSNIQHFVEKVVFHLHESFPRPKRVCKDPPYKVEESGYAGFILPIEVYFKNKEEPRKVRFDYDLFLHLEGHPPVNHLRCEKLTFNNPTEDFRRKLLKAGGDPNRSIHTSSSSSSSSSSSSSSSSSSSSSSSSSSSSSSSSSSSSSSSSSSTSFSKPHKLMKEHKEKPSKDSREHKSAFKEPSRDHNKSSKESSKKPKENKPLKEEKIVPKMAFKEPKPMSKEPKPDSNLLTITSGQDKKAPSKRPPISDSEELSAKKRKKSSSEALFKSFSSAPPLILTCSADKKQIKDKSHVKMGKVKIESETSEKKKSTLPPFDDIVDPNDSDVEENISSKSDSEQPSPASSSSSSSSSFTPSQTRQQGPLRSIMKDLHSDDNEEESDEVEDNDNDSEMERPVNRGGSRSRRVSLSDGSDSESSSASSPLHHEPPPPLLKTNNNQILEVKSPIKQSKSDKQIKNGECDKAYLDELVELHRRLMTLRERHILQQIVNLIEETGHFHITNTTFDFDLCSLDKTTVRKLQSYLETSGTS
FGF22 binding = binders of recombinant human FGF22 by thermal shift. SYPRO orange fluorescence; percent of sucrose octasulfate shift, DMSO zero. 1.5% of 340,000 active. AID 651658. calls only at 9.99 µM;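 active = melting point raised past a set limit in the mean and every replicate; three in four hits are not shown here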
Target sequence (Q9HCT0 whole entry, looked up): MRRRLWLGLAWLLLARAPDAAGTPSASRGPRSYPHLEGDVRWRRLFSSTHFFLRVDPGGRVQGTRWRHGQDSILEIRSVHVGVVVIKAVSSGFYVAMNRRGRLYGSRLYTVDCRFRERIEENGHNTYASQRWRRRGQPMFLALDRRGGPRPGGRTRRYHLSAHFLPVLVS
Starred values were filed as active, the others as inactive; i = inactive; & = joins results of further samples. An excerpt. The share of hits here may be higher or lower than overall.

molecule | MLL AF4-AF9 inh | FGF22 binding
COc1cccc(CN2[C@H](CO)[C@@H](c3ccccc3)C23CN(Cc2ccccc2OC)C3)c1 | 7.6 | i
CCNC(=O)Nc1ccc2c(c1)C(=O)N(C)[C@H]1CC[C@@H](CC(=O)Nc3ccccc3)O[C@@H]1CO2 | -0.4 | i
Cc1noc(C)c1S(=O)(=O)Nc1ccc2c(c1)C(=O)N([C@H](C)CO)C[C@H](C)[C@@H](CN(C)C(=O)c1ccncc1)OCCCC[C@@H](C)O2 | -0.8 | i
CCC(=O)N1C[C@@H](C)[C@@H](OC)CN(C)C(=O)c2cc(NC(=O)CC(F)(F)F)ccc2OC[C@H]1C | -5.2 | i
Cc1ccc(S(=O)(=O)N(C)C[C@@H]2Oc3ncc(-c4ccccc4)cc3C(=O)N([C@H](C)CO)C[C@@H]2C)cc1 | -2.3&-0.1 | i
CCC(=O)N(C)C[C@@H]1Oc2cc(-c3ccc(C)cc3)ccc2S(=O)(=O)N([C@@H](C)CO)C[C@@H]1C | 0.0 | i
CO[C@H]1CN(C)C(=O)c2ccc(NC(=O)C3CCOCC3)cc2OC[C@@H](C)N(C(C)=O)C[C@H]1C | -1.5 | i
Cc1ccc(S(=O)(=O)N[C@H]2C=C[C@H](CC(=O)N3CCN(c4ccccc4)CC3)O[C@@H]2CO)cc1 | 0.3 | i
COc1ccccc1C(=O)N1C[C@@H]2[C@H](c3ccccc31)[C@@H](CO)N2C(=O)C1CCCC1 | 0.2 | i
COc1cccc(S(=O)(=O)N(C)C[C@H]2Oc3ncc(-c4cccc(C(=O)N(C)C)c4)cc3C(=O)N([C@H](C)CO)C[C@H]2C)c1 | -1.1 | i
C[C@@H]1CN([C@H](C)CO)C(=O)c2cccc(NC(=O)c3ccc(-c4nccs4)cc3)c2O[C@H]1CN(C)S(=O)(=O)c1ccc(F)cc1 | -0.1 | i
CN(C)CCCNC(=O)C[C@@H]1CC[C@H](NS(=O)(=O)c2ccccc2)[C@H](CO)O1 | 0.3 | i
C[C@@H]1CN([C@@H](C)CO)C(=O)Cc2cc(N(C)C)ccc2O[C@H]1CN(C)C(=O)Nc1ccc(F)cc1 | -0.3 | i
O=C(N[C@H]1CC[C@@H](CCNS(=O)(=O)c2ccc(F)cc2)O[C@H]1CO)c1cnccn1 | -2.3 | i
COc1cccc(-c2ccc([C@@H]3[C@H]4CN(CC5CCOCC5)CCCCN4[C@H]3CO)cc2)c1 | 4.6 | i
CO[C@H]1CN(C)C(=O)c2cc(NS(=O)(=O)c3cn(C)cn3)ccc2OC[C@H](C)N(CC2CC2)C[C@@H]1C | -1.0 | i
C[C@@H]1CN([C@@H](C)CO)C(=O)c2cc(NC(=O)Nc3ccc(F)cc3)ccc2O[C@H]1CN(C)S(=O)(=O)c1cccs1 | 0.8 | i
C[C@@H]1CN([C@@H](C)CO)C(=O)c2cc(C#CC3(O)CCCC3)cnc2O[C@@H]1CN(C)S(C)(=O)=O | -5.6 | i
COc1cccc(C(=O)Nc2ccc3c(c2)C(=O)N(C)[C@H]2CC[C@H](CC(=O)NCC4CC4)O[C@H]2CO3)c1 | -1.4 | i
C[C@@H]1CN([C@H](C)CO)C(=O)c2cc(NS(=O)(=O)c3cccs3)ccc2O[C@@H](C)CCCCO[C@@H]1CN(C)S(=O)(=O)c1ccccc1 | -1.9 | i
C[C@H](CO)N1C[C@H](C)[C@H](CN(C)S(=O)(=O)c2cn(C)cn2)Oc2ncc(C#CCN(C)C)cc2C1=O | -4.4&-5.0 | i
COCCN1Cc2cc(C(=O)OC)c3c(c2C1=O)c1ccccc1n3S(=O)(=O)c1ccc(OC)cc1 | 1.4 | i
COc1ccc(C#Cc2cnc3c(c2)C(=O)N([C@H](C)CO)C[C@H](C)[C@H](CN(C)Cc2cccc(C(F)(F)F)c2)O3)cc1OC | 5.7 | i
C[C@@H]1CN([C@H](C)CO)C(=O)c2cc(C#CC3CCCC3)cnc2O[C@H]1CN(C)C(=O)Nc1ccccc1 | -1.1 | i

Compound profiles, from the list above. Values in the order: MLL AF4-AF9 inh, FGF22 binding
`COc1cccc(-c2ccc([C@@H]3[C@H]4CN(CC5CCOCC5)CCCCN4[C@H]3CO)cc2)c1` is entered as 4.6, i
`C[C@@H]1CN([C@@H](C)CO)C(=O)c2cc(NC(=O)Nc3ccc(F)cc3)ccc2O[C@H]1CN(C)S(=O)(=O)c1cccs1` is entered as 0.8, i
`CO[C@H]1CN(C)C(=O)c2cc(NS(=O)(=O)c3cn(C)cn3)ccc2OC[C@H](C)N(CC2CC2)C[C@@H]1C` is entered as -1.0, i
`COCCN1Cc2cc(C(=O)OC)c3c(c2C1=O)c1ccccc1n3S(=O)(=O)c1ccc(OC)cc1` is entered as 1.4, i
`O=C(N[C@H]1CC[C@@H](CCNS(=O)(=O)c2ccc(F)cc2)O[C@H]1CO)c1cnccn1` is entered as -2.3, i

Next compounds follow.
molecule | MLL AF4-AF9 inh | FGF22 binding
CCC(=O)N1CCCCN2[C@H](CO)[C@H](c3ccc(C#Cc4ccccc4)cc3)[C@@H]2C1 | -3.4 | i
C[C@H]1CN([C@@H](C)CO)S(=O)(=O)c2ccc(C#Cc3ccccc3)cc2O[C@@H]1CN(C)C(=O)c1ccccn1 | 5.1 | i
C[C@@H]1CN([C@H](C)CO)C(=O)c2cc(C#Cc3ccccc3)cnc2O[C@@H]1CN(C)C(=O)c1ccccc1F | 3.1 | i
COc1ccc(NC(=O)Nc2ccc3c(c2)CC(=O)N([C@H](C)CO)C[C@@H](C)[C@H](CN(C)Cc2ccc4c(c2)OCO4)O3)cc1 | -0.6 | i
C[C@H]1CN([C@@H](C)CO)C(=O)c2cccc(NC(=O)c3ccncc3)c2O[C@H]1CN(C)C(=O)NC1CCCCC1 | -0.9 | i
Cc1noc(C)c1NC(=O)Nc1ccc2c(c1)C(=O)N([C@H](C)CO)C[C@H](C)[C@H](CN(C)C(=O)NC1CCCCC1)OCCCC[C@H](C)O2 | 3.0 | i
CC(C)NC(=O)N(C)C[C@@H]1Oc2ccc(NC(=O)c3ccncc3)cc2CC(=O)N([C@H](C)CO)C[C@@H]1C | -3.5 | i
COc1cccc(C#Cc2ccc3c(c2)O[C@H](CN(C)C(C)=O)[C@H](C)CN([C@@H](C)CO)S3(=O)=O)c1 | 2.2 | i
O=C(Nc1ccc2c(c1)OCO2)N[C@@H]1CC[C@@H](CCNC(=O)C2CCOCC2)O[C@H]1CO | -2.8 | i
CC(C)C#Cc1ccc2c(c1)O[C@@H](CN(C)C(=O)CN(C)C)[C@H](C)CN([C@@H](C)CO)S2(=O)=O | 1.2 | i
O=C(N[C@H]1CC[C@H](CCNS(=O)(=O)c2ccc(F)cc2)O[C@@H]1CO)c1ccccn1 | -0.4 | i
O=S(=O)(N[C@@H]1CCCN(Cc2ccc(OCCO)cc2)C1)c1cc(C(F)(F)F)ccc1Cl | 19.7 | i
COCC(=O)N1[C@H](CO)[C@@H](c2ccccc2-c2ccc(C)cc2)[C@@H]1C#N | -1.1 | i
O=C(Nc1ccc(F)cc1)N1CCCCN2[C@H](CO)[C@H](c3ccc(-c4ccccc4F)cc3)[C@@H]2C1 | -2.3 | i
COc1ccc(S(=O)(=O)N(C)C[C@@H]2Oc3cc(-c4cccc(F)c4)ccc3S(=O)(=O)N([C@H](C)CO)C[C@H]2C)cc1 | -0.8 | i
COC(=O)[C@]12C[C@H](CC(=O)N3CCOCC3)C(=O)N(Cc3ccc4c(c3)OCO4)C1=C[C@H](C(C)(C)C)O[C@@H]2C | 0.4 | i
CC(C)NC(=O)N(C)C[C@H]1Oc2c(NS(=O)(=O)c3ccccc3)cccc2C(=O)N([C@@H](C)CO)C[C@H]1C | -1.1 | i
C[C@@H]1CN([C@H](C)CO)C(=O)c2cc(NS(C)(=O)=O)ccc2O[C@@H](C)CCCCO[C@H]1CN(C)Cc1ccc(Cl)c(Cl)c1 | 7.6 | i
CC(C)NC(=O)N(C)C[C@@H]1Oc2ccc(NS(C)(=O)=O)cc2CC(=O)N([C@@H](C)CO)C[C@@H]1C | -2.5 | i
C/C=C/c1cnc2c(c1)C(=O)N([C@H](C)CO)C[C@@H](C)[C@H](CN(C)C(=O)C1CCOCC1)O2 | -2.4 | i
CN(C)CC(=O)N1[C@@H]2c3cccc(=O)n3C[C@H]1[C@H](CO)[C@H]2C(=O)NCc1ccccc1 | -15.6 | i
O=C(C[C@@H]1CC[C@@H]2[C@H](COC[C@@H](O)CN2S(=O)(=O)c2cccc(Cl)c2)O1)N1CCOCC1 | -3.0 | i
CC(C)NC(=O)N(C)C[C@@H]1Oc2ccc(NC(=O)Nc3ccccc3)cc2C(=O)N([C@@H](C)CO)C[C@H]1C | -1.8 | i
C[C@@H]1CCCCO[C@@H](CN(C)C(=O)CCC(F)(F)F)[C@H](C)CN([C@H](C)CO)C(=O)c2cc(NS(=O)(=O)c3ccc(Cl)cc3)ccc2O1 | -3.7 | i

Continued, overlapping the part above by two compounds.
molecule | MLL AF4-AF9 inh | FGF22 binding
CC(C)NC(=O)N(C)C[C@@H]1Oc2ccc(NC(=O)Nc3ccccc3)cc2C(=O)N([C@@H](C)CO)C[C@H]1C | -1.8 | i
C[C@@H]1CCCCO[C@@H](CN(C)C(=O)CCC(F)(F)F)[C@H](C)CN([C@H](C)CO)C(=O)c2cc(NS(=O)(=O)c3ccc(Cl)cc3)ccc2O1 | -3.7 | i
COCC(=O)Nc1ccc2c(c1)OC[C@H](C)N(C(=O)c1ccncc1)C[C@@H](C)[C@@H](OC)CN(C)C2=O | -0.4 | i
C[C@@H]1CN([C@@H](C)CO)C(=O)c2cc(NC(=O)C3CCCCC3)ccc2O[C@H]1CN(C)S(=O)(=O)c1ccc(F)cc1 | -1.3 | i
CC=Cc1ccc2n(c1=O)C[C@H]1[C@H](CO)[C@@H](C(=O)N3CCN(C)CC3)N(Cc3ccccc3OC)[C@@H]21 (mixture of isomers) | 2.8 | i
O=C(C[C@H]1C=C[C@@H](NC(=O)C2CCOCC2)[C@H](CO)O1)NCC1CC1 | -1.2 | i
CC(C)NC(=O)N(C)C[C@@H]1Oc2cc(-c3ccncc3)ccc2S(=O)(=O)N([C@H](C)CO)C[C@@H]1C | -3.2 | i
C[C@@H]1CN([C@@H](C)CO)C(=O)c2cc(C#Cc3ccc(F)cc3)cnc2O[C@@H]1CN(C)C | 10.8 | i
COc1ccc2c3c(n(C)c2c1)[C@@H](CO)N(C(=O)CN(C)C)CC31CCN(C(=O)NC(C)C)CC1 | -2.8 | i
O=C(C[C@@H]1CC[C@@H](NC(=O)NC2CCCCC2)[C@@H](CO)O1)NCc1ccccc1 | -3.1 | i
COc1ccc(S(=O)(=O)Nc2ccc3c(c2)C(=O)N([C@H](C)CO)C[C@@H](C)[C@H](CN(C)CC2CC2)OCCCC[C@@H](C)O3)cc1 | 5.7 | i
C[C@H](CO)N1C[C@H](C)[C@@H](CN(C)C(=O)NC2CCCCC2)Oc2c(NC(=O)Nc3ccc(F)cc3)cccc2C1=O | 2.5 | i
COc1ccccc1-c1cnc2c(c1)C(=O)N([C@H](C)CO)C[C@@H](C)[C@H](CN(C)C(=O)c1ccncc1)O2 | -3.7 | i
CCNC(=O)C[C@H]1CC[C@@H]2[C@@H](COc3ccc(NC(=O)Nc4cccc(C)c4)cc3C(=O)N2C)O1 | 1.3 | i
OC(c1ccccc1)C1(c2ccccc2)CCN(Cc2ccccc2)CC1 (stereo not given) | 1.6 | i
C[C@H]1CN([C@@H](C)CO)C(=O)c2cccc(NC(=O)Nc3ccc(F)cc3)c2O[C@@H]1CN(C)C(=O)NC1CCCCC1 | 0.1 | i
COc1ccc(S(=O)(=O)N(C)C[C@@H]2Oc3c(NC(=O)Nc4cccc5ccccc45)cccc3C(=O)N([C@H](C)CO)C[C@H]2C)cc1 | 6.1 | i
O=C(C[C@@H]1CC[C@H](NC(=O)C2CC2)[C@@H](CO)O1)Nc1ccccc1 | -1.0 | i
Cc1noc(C)c1S(=O)(=O)N(C)C[C@H]1OCCCC[C@H](C)Oc2ccc(NS(=O)(=O)c3ccccc3)cc2C(=O)N([C@H](C)CO)C[C@H]1C | 0.1 | i
C[C@H](CO)N1C[C@H](C)[C@H](CN(C)S(=O)(=O)c2ccc(F)cc2)Oc2ncc(C#CC(C)(C)O)cc2C1=O | -1.1 | i
C[C@H](CO)N1C[C@H](C)[C@H](CN(C)S(=O)(=O)c2cccc(F)c2)Oc2ncc(-c3ccc(F)cc3)cc2C1=O | -4.3 | i
C[C@@H]1CN([C@@H](C)CO)C(=O)c2cccc(NC(=O)Nc3ccc(F)cc3)c2O[C@@H]1CN(C)S(C)(=O)=O | -1.4 | i
O=C(C[C@@H]1CC[C@@H]2[C@H](COC[C@@H](O)CN2C(=O)c2ccccc2F)O1)N1CCN(c2ccccc2)CC1 | 1.0 | i
C[C@@H]1CCCCO[C@@H](CN(C)C(=O)CCCN(C)C)[C@H](C)CN([C@@H](C)CO)C(=O)c2cc(NS(=O)(=O)c3ccccc3)ccc2O1 | -0.4 | i
COc1ccccc1NC(=O)N1CCCCN2[C@@H](CO)[C@@H](c3ccc(C#CC4CC4)cc3)[C@@H]2C1 | 12.5 | i
CO[C@@H]1CN(C)C(=O)c2cc(NC(=O)c3ccccc3F)ccc2OC[C@@H](C)N(C)C[C@@H]1C | 0.0 | i
CCS(=O)(=O)NCC[C@H]1CC[C@H](NC(=O)Nc2cc(Cl)cc(Cl)c2)[C@H](CO)O1 | -6.2 | i
COc1ccc(NC(=O)N(C)C[C@@H]2Oc3ncc(C#CCC(C)C)cc3C(=O)N([C@H](C)CO)C[C@H]2C)cc1 | -12.0 | i
COc1cccc(C(=O)Nc2ccc3c(c2)C(=O)N(C)[C@@H]2CC[C@@H](CC(=O)NCC(F)(F)F)O[C@@H]2CO3)c1 | -1.0 | i

Screens: PubChem, Broad Institute
